Tgondii IFNg = T. gondii growth inhibition with IFN-gamma, primary screen, cell-based; AID 1259416, 2018; Toxoplasma gondii growth in IFN-gamma-treated host cells; stronger effect = lower value; reference of the scale not given here; hit rate 3.8% among 69,000; activity change, negative = inhibition, %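 (about 20 µM by stock and volumes)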;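 active = below -70%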;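 also: host cells are HeLa cells infected with Toxoplasma gondii; parasite growth read as luciferase light; one replicate is shown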
* marks the source's active call; other numbers are inactive results; i = inactive; & = joins results of further samples. An excerpt, so the mix of outcomes need not match the whole.

SMILES	Tgondii IFNg
CCOC(=O)c1cc(C)nc2c1c(=O)n(Cc1nc(-c3ccc(C(C)C)cc3)oc1C)c(=O)n2C	20
O=C(C[C@@H]1CC[C@H]2[C@@H](COC[C@H](O)CN2CCC(F)(F)F)O1)NCc1ccc2c(c1)OCO2	0
O=C(NCC(c1cccnc1)c1c[nH]c2ccccc12)Nc1cccc(Br)c1 (stereo not drawn)	191
Cc1nc(S(=O)(=O)N2CC(c3cccnc3)C2)cn1C	4
CC(C)Oc1cccc(-c2csc(C(N)=O)c2)c1	66
O=c1nc2ccccc2c2n1CC(CN1CCN(c3ccccc3)CC1)N2 (stereo not drawn)	14&15
CCN(Cc1nc(COC)no1)C(=O)c1ccccc1-c1ccccc1	-2
COCCn1c(C)cc2cc(NC(=O)c3cnn4cc(C)cnc34)ccc21	-24
CN1CCN(CC#N)C(=O)C12CCN(Cc1nccs1)CC2	44
CC(C)(C)SCCNS(=O)(=O)c1ccc(C#N)cc1	-51
Cc1noc(C)c1NC(=O)N1CC[C@@](C)(O)[C@@H](CC(C)C)C1	12
COc1ccc2c(c1)CC(NCCNc1cccnc1)CC2 (stereo not drawn)	-1
Cc1cc2n(n1)CCC(=O)N2C(C)C(=O)NCCCN1CCC(N2CCCCC2)CC1 (stereo not drawn)	68
CCCNC(=O)N(C)C[C@@H]1Oc2cc(C#C[C@@H](C)O)ccc2S(=O)(=O)N([C@H](C)CO)C[C@@H]1C	51
COc1ccc(NC(=O)C(=O)NCCc2csc(-c3cccc(F)c3)n2)cc1	-3
COCC1CC2(CCN(C(=O)COc3ccc(F)cc3)CC2)CO1 (stereo not drawn)	-5
CCOc1ccc(NC(=O)N2CCN(Cc3nc(-c4cccc(Cl)c4)oc3C)CC2)cc1	-49
Cc1ccccc1Cn1cccc1CNS(=O)(=O)c1ccc2c(c1)CCC(=O)N2	50
CSc1c(-c2cccs2)c(N)nn1S(=O)(=O)c1ccccc1	72
CCS(=O)(=O)N1CCC2(CC1)OC(=O)C(C)=C2C(=O)NCc1cccc(OC)c1	23
CSc1nc(N)nc(COc2ccccc2Cl)n1	47
N#Cc1c2c(c(Nc3ccccc3)n3c1nc1ccccc13)CCCC2	-51
CCOC(=O)c1nc(COc2ccccc2Cl)[nH]c(=O)c1C	-5
Brc1ccc(-n2nnnc2CSc2ncn[nH]2)cc1	13
COc1ccccc1-c1ccc(C2[C@@H]3CN(Cc4cccc(F)c4)C[C@H]2N3)cc1 (stereo partly drawn)	-68
CN1C(=O)c2cc(NC(=O)c3cscn3)ccc2OC[C@H]2O[C@@H](CC(=O)N3CCOCC3)CC[C@H]21	4
O=C(CC1N=C2c3ccccc3N=C(SCc3cc(=O)n4cc(Cl)ccc4n3)N2C1=O)NCc1cccs1 (stereo not drawn)	5
CC(Sc1nnnn1C)C(=O)n1c2ccccc2c2ccccc21 (stereo not drawn)	-17
O=C(c1csc(-c2ccc(N3CCCCC3)nc2)n1)N1CCN(c2ccccn2)CC1	-18
Cc1ccsc1CNc1cccc(C(=O)N2CCC[C@H]2C(N)=O)c1	-19
Cc1ccc2c(c1C)-n1cccc1C1(CCN(S(=O)(=O)c3ccc(F)cc3)CC1)N2	8
C=CCN1CCO[C@H]2CN(S(=O)(=O)c3cccs3)CC[C@@H]2C1	-9
CN1C(Cn2cccn2)CC2CN(C(=O)c3ccccc3)CCC21 (stereo not drawn)	5
CC(C)c1ccc(S(=O)(=O)N2CCCn3nnc(CN4CCCCC4)c3C2)cc1	0
O=C(Cc1ccccc1Cl)Nc1ccc(-c2nc(-c3ccccc3)co2)cc1	-35
c1ccc(COC2CCN(Cc3cnc(-c4ccco4)nc3)CC2)cc1	2
CCCn1c(=O)[nH]c2nc(-c3ccc(S(=O)(=O)O)cc3)[nH]c2c1=O	10&0
O=C(CCc1cccs1)CSCC(=O)NCc1cccs1	214
O=c1/c(=C/c2ccco2)sc2nc3ccccc3n12	5
O=C(NCC1CC1)[C@@]12CCCN(c3ncccn3)[C@H]1CN(c1ncc(F)cn1)C2	-24
COc1cc2c(cc1OC)C1(CCCC1)CNC2c1cccc([N+](=O)[O-])c1 (stereo not drawn)	-25
CN(Cc1n[nH]c2c1CCCCC2)C(=O)[C@@H]1C[C@H](N)CN1C	-2
COc1ccc(NC(=O)c2c(O)c3cccnc3[nH]c2=O)cc1F	62
CC(C)C1CN(C(=O)c2ccc3cccnc3c2O)CCCN1CC1CC1 (stereo not drawn)	-53
CSc1ccc(CN(C(=O)c2cccc(-c3noc(C)n3)c2)C2CC2)cc1	-6
CCCc1ccc(S(=O)(=O)Nc2ccc(-c3nc(-c4ccc(C)cc4C)co3)cc2)cc1	-50
Cc1ccccc1NC(=O)c1c(O)c2ccccc2n(-c2ccccc2)c1=O	19
CCN(CC)c1cc(C)nc2nc(CN3CCC(N4CCCCC4)CC3)nn12	2
CCO[C@H]1COC[C@@H]1NC(=O)c1cc(-c2ccc(O)cc2)n[nH]1	2
CCN(Cc1cnn(C)c1)Cc1nc(C(c2ccccc2)c2ccccc2)no1	37
COCC(=O)N1CCCN(CCn2c(=O)oc3ccccc32)CC1	-1
N#Cc1ccccc1NC(=O)C(=O)NCCc1csc(-c2ccc(F)cc2)n1	-3
CC(C)c1nccc(C(=O)N2[C@@H]3CC[C@H]2CNC(=O)C3)n1	-1
COc1cccc(CCN2C[C@@H]3CCN(C(=O)c4cnc(C)cn4)CC[C@H]3S2(=O)=O)c1	9
COCC(=O)N1CCC2(CC1)CN(c1cncnc1)C(=O)CO2	80
CCn1c(=O)c(-c2nc(-c3ccc(F)cc3)no2)c(O)c2ccc(F)cc21	104
Cn1cc(SCC(=O)N2CCCC3(CC2)CNC(=O)O3)c2ccccc21 (stereo not drawn)	111
CN(C)C(=O)CN1C[C@@H]2CCCN(Cc3cnn(C)c3)[C@@H]2C1	151
Cc1nc(-c2ccc(F)cc2)sc1CCNC(=O)C12CC3CC(CC(C3)C1)C2	-91*
Cc1c(CN2CCCC(c3nc(C(C)C)no3)C2)c2ccccc2n1CC(N)=O (stereo not drawn)	-5

7 compounds from above, arranged by molar mass, falling:
SMILES	Tgondii IFNg
Cc1nc(-c2ccc(F)cc2)sc1CCNC(=O)C12CC3CC(CC(C3)C1)C2	-91*
Cc1c(CN2CCCC(c3nc(C(C)C)no3)C2)c2ccccc2n1CC(N)=O (stereo not drawn)	-5
N#Cc1ccccc1NC(=O)C(=O)NCCc1csc(-c2ccc(F)cc2)n1	-3
CCN(CC)c1cc(C)nc2nc(CN3CCC(N4CCCCC4)CC3)nn12	2
Cn1cc(SCC(=O)N2CCCC3(CC2)CNC(=O)O3)c2ccccc21 (stereo not drawn)	111
CCn1c(=O)c(-c2nc(-c3ccc(F)cc3)no2)c(O)c2ccc(F)cc21	104
COCC(=O)N1CCC2(CC1)CN(c1cncnc1)C(=O)CO2	80

Later entries:
SMILES	Tgondii IFNg
COc1ccccc1N1C(=O)CN(NC(=O)C(c2ccccc2)c2ccccc2)C1=O	-12
CCCc1nc(CNC2CCN(C(=O)c3ccccc3)CC2)cs1	66
CN(Cc1ccc(-n2ccnc2)cc1)Cc1cccc2cnccc12	-45
CCC(=O)N1[C@H](C(=O)NCCCN(C)C)[C@@H](CO)[C@@H]2Cn3c(ccc(-c4ccccc4OC)c3=O)[C@@H]21	0
CCOC(=O)c1c(N)sc2c1CN(C(=O)OC)N(C(=O)OC)C2	9
CN1CCN(CCO)C(=O)C12CCN(C1CCOC1)CC2 (stereo not drawn)	4
COc1cccc(-c2nccn2-c2ccc3cn[nH]c3c2)c1OC	10
CN(C)CC#Cc1ccc([C@@H]2[C@H](C#N)N[C@@H]2CO)cc1	12
CCCn1cnnc1Cn1cnc(-c2ccccc2)c1-c1cn(CC)nc1C	-2
CCN[C@H]1CN(CCCOC)S(=O)(=O)c2sc(S(N)(=O)=O)cc21	13
c1ccc(C2CN(c3nc(-c4cccnc4)nc4c3CNC4)CCN2)cc1 (stereo not drawn)	-5
Cc1ccc(N2CCC3(CCC(=O)N3)CC2)nn1	31
O=c1c(C(c2cccnc2)c2c(O)nc3n(c2=O)CCS3)c(O)nc2n1CCS2	13
CCc1nnc(CN(CC)C(=O)c2cccc(-c3ccc(C)o3)c2)o1	1
CN1Cc2ccccc2CC2(CCN(c3ccc(C#N)cn3)CC2)C1=O	-1
Cc1[nH]c2ccccc2c1/C=C/c1nc2ccccc2c(=O)n1CCO	-48
CCc1nc(C)sc1CNC(=O)c1cc(COc2ccccc2)[nH]n1	-10
CCCc1ncncc1C(=O)N1CCc2[nH]nc(-c3ccccc3F)c2C1	-35
COc1cccc(S(=O)(=O)N2CC[C@H]3[C@@H](CO)N(C)c4ccc(-c5ccccc5OC)cc4[C@H]32)c1	24
O=C(CCN1Cc2ccccc2C1=O)Nc1cnc2n1CCCC2	7

By substructure, the entries above with bromine (2)
SMILES	Tgondii IFNg
O=C(NCC(c1cccnc1)c1c[nH]c2ccccc12)Nc1cccc(Br)c1 (stereo not drawn)	191
Brc1ccc(-n2nnnc2CSc2ncn[nH]2)cc1	13

The results go on.
SMILES	Tgondii IFNg
CCN(C[C@@H]1[C@@H](c2ccc(-c3cccnc3)cc2)[C@@H](CO)N1C(C)=O)C(C)=O	-1
O=C(NCc1ccccc1F)[C@H]1[C@H](CO)[C@H]2Cn3c(cccc3=O)[C@H]2N1CC1CCCC1	-18
COc1ccc(C2CCN(CC(=O)NC(C)(C)C)CC2)cc1	-9
N=C1SC(c2ccccc2)C(=O)N1c1nc2ccccc2s1 (stereo not drawn)	-82*
CCc1c(C)cc(C(=O)NCc2cc(-c3ccco3)on2)c(=O)n1C	-33
COCCNC(=O)C(OC(=O)CN1C(=O)COc2ccccc21)c1cccnc1 (stereo not drawn)	-64
O=C(c1ccc(F)cc1)C1CCNCC1	-24
CCOC1C2CCC1N(Cc1ccc(OC)cc1)C2 (stereo not drawn)	-56
COc1ccc(CN2[C@@H]3CN(C(=O)NC(C)C)c4ccccc4[C@@H]3[C@@H]2CO)cc1	4
Cc1ccc(C2=NC3(CCN(CC(=O)NCc4ccc(Cl)cc4)CC3)NC2=O)cc1C	-43
Cc1cc(C)c(S(=O)(=O)NCCc2sc(-c3ccccc3)nc2C)c(C)c1	32
CN1C(=O)C(Cc2c[nH]c3ccccc23)NC1=S (stereo not drawn)	36
Cc1ccc(N2CC3(CCCCN3CC3CC3)CC2=O)cc1 (stereo not drawn)	-20
O=C(O)CSc1n[nH]c(=O)[nH]c1=O	14
Cc1ccc(S(=O)(=O)N2CSC[C@@H]2C(=O)NCCc2csc(-c3ccccc3)n2)c(C)c1	-53
O=c1c(Cc2ccc(Cl)c(Cl)c2)c(-c2ccccc2)oc2ccccc12	-43
O=C(NCc1ccc2c(c1)OCO2)[C@@H]1[C@@H](CO)[C@@H]2Cn3c(cccc3=O)[C@H]1N2Cc1cncnc1	13
Cc1ccccc1C(=O)N1CCCC2(C1)Nc1cccnc1NC2=NC1CCCC1 (stereo not drawn)	139
CCN1C(=O)CCc2cc(NS(=O)(=O)c3ccccc3C(=O)OC)ccc21	17
Cc1nc(-c2ccccc2)nc2c1CCN(C(=O)C1CCOC1)CC2 (stereo not drawn)	0

Single values from the list:
Cc1ccccc1C(=O)N1CCCC2(C1)Nc1cccnc1NC2=NC1CCCC1 (stereo not drawn) | Tgondii IFNg: 139
COc1ccc(C2CCN(CC(=O)NC(C)(C)C)CC2)cc1 | Tgondii IFNg: -9
Cc1nc(-c2ccccc2)nc2c1CCN(C(=O)C1CCOC1)CC2 (stereo not drawn) | Tgondii IFNg: 0
O=C(NCc1ccccc1F)[C@H]1[C@H](CO)[C@H]2Cn3c(cccc3=O)[C@H]2N1CC1CCCC1 | Tgondii IFNg: -18
Cc1ccc(C2=NC3(CCN(CC(=O)NCc4ccc(Cl)cc4)CC3)NC2=O)cc1C | Tgondii IFNg: -43
CCN1C(=O)CCc2cc(NS(=O)(=O)c3ccccc3C(=O)OC)ccc21 | Tgondii IFNg: 17
O=C(O)CSc1n[nH]c(=O)[nH]c1=O | Tgondii IFNg: 14

Next section.
SMILES	Tgondii IFNg
CO[C@H](CN(C)C(=O)c1ccccc1F)[C@H](C)CN([C@@H](C)CO)S(=O)(=O)c1ccc(F)cc1	43
CCN1CCCC1CNC(=O)C1=C(C)C(=O)OC12CCN(S(=O)(=O)c1cccs1)CC2 (stereo not drawn)	37
O=C(Nc1ccc(-c2nc(-c3ccccc3)co2)cc1)Nc1ccccc1F	68
Cc1cccc(-c2nnn3c2COC(CNCc2nccs2)C3)c1 (stereo not drawn)	i
COC(=O)Cn1c(-c2ccccc2)cn2c3c(=O)n(C)c(=O)n(C)c3nc12	-8
COCc1nc(NCc2ccccc2-n2cccn2)c2cnn(C)c2n1	-6
CN1CCN(C(=O)C[C@@H]2CC[C@@H]3[C@H](COC[C@H](O)CN3C(=O)c3ccccc3F)O2)CC1	13
CN(C)Cc1ccc(-c2nc3cccc4c3n2CCNC4=O)cc1	-14
CN1C[C@@H](O)COC[C@@H]2O[C@H](CC(=O)NC3CCCC3)CC[C@H]21	26
CC1CNC(=O)CCN1C(=O)CCCC(=O)c1ccccc1 (stereo not drawn)	1
COc1ccc(-c2ccc([C@@H]3[C@@H](CO)N4C(=O)CN(Cc5ccccc5)C[C@H]34)cc2)cc1	-4
CC1(C)CC(=O)C2=C(C1)c1c(ccc3ccccc13)NC2c1ccco1 (stereo not drawn)	216
O=C(Cc1c(F)cccc1Cl)Nc1nncs1	-18
O=C(C1CCOC1)N1CCc2ncnc(-c3ccc(F)cc3)c2CC1 (stereo not drawn)	2
CCCCOCC(=O)N1CCC2(CCOCC2)CC1	6
CC(=O)NC[C@H]1CN(c2ccc(N3CCN(C(=O)CO)CC3)c(F)c2)C(=O)O1	8
Cc1cccc(-c2nnc(-c3nc(NCCc4c(C)noc4C)c4ccccc4n3)o2)c1	-17
c1csc(CN2CCC3(CC2)CCN(CC2CC2)C3)n1	-13
COCC(=O)N1CCCc2c(C#N)nn(C)c2C1	59
CNc1cc(C2CCCNC2)nc(CN(C)C(=O)Cc2cccc(F)c2)n1 (stereo not drawn)	-2
COC(=O)c1scc(S(=O)(=O)Cc2ccco2)c1N	-3
N#C[C@@H]1[C@@H](c2ccccc2-c2ccccc2F)[C@H](CO)N1C(=O)C1CCC1	-36
Cc1cccc2[nH]c(CNC(=O)C(c3cccnc3)N3CCCC3)nc12 (stereo not drawn)	3
COc1cc(OC)cc(C(=O)Nc2ccc(-c3nc(-c4ccc(C)cc4C)co3)cc2)c1	-49
